# Sfp PPTase inh – blocks B. subtilis Sfp PPTase activity; Q9F4F7; Biochemical Sfp PPTase activity, qHTS; Potency, µM, without a hit: max response, negative = inhibition, actives largely listed as inhibitors; 310,000 tested, 3.5% active; active = well fitted inhibition curve with a large enough effect; inconclusive = small, poorly fitted or top-dose-only effect, or another doubt; inactive = no such curve, though single readings can be large or run the other way;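 note: the enzyme is Sfp with the accession as filed and its product quenches rhodamine fluorescence; potency is the fitted concentration of half-maximal effect; 0% = enzyme reaction without inhibitor and -100% = no enzyme wells; top concentration of the series not given in the record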
#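 Step 1, compound plus 15 nM Sfp-PPTase, 15 min, room temperature. Step 2, add rhodamine-CoA (5 uM) and BHQ-2-YbbR (12.5 uM). Step 3, read 525/598 nm fluorescence at 0 and 30 min.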
# CtBP-E1A inh – blocks the CtBP interaction with E1A | AlphaScreen GST-E1A/His-CtBP binding, 1536-well; stronger effect = lower value; control for the full effect not named in the record | activity change, % (no concentration beside the values) | 340,000 tested, 0.49% active; in the data active means activity change below about -65%; inconclusive means about -30% to -65%; inactive means above about -30%; note: % is set by controls: 0 for no effect and ±100 for the full control effect; compound concentration not given in the record
#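 AlphaScreen with 125 nM GST-E1A and 125 nM His-CtBP (5X stocks) in Tris pH 8.0, 300 mM NaCl, BSA, Tween 20, TCEP. Compounds preincubated 2 h at 37 deg C, then glutathione donor/nickel acceptor beads added for 1 h at 37 deg C in dark.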
# PINK1 modulator – PINK1 expression modulation | PINK1 immunofluorescence, high-content cytometry, 24 h | Potency, µM (titrated, usually from 76.6 µM), without a hit: at the top dose activation (PINK1 increase), actives largely listed as activators | 410,000 tested, 0.2% active | AID 624263; active = well fitted activation curve with a large enough effect; inconclusive = small, poorly fitted or top-dose-only effect; inactive = flat fitted curve, though single readings scatter; cell line not stated here;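 note: potency is the fitted concentration of half-maximal effect; % of control where 0% means no effect; nearly all actives have a fitted effect of over 65% in size; a mitochondrial uncoupler was the plate control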
#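 Measures PINK1 amount and localization on or inside mitochondria by immunofluorescence. Stable cells get compounds at 5 concentrations for 24 hours before fixation and staining; CCCP controls included.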
# Six1-Eya2 inh – Six1/Eya2 interaction inhibition; activity change, % (test concentration not listed); AlphaScreen GST-Six1/His-Eya2 binding, biochemical; stronger effect = lower value; control for the full effect not named in the record; Q15475+O00167; AID 651725; 360,000 tested, 0.56% active; in the data active = activity change below about -65%; inconclusive = about -30% to -65%; inactive = above about -30%; note: % is set by controls: 0 for no effect and ±100 for the full control effect; compound concentration not given in the record
#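 AlphaScreen with GST-Six1 and His-Eya2 (5X mix: 250 nM and 500 nM), glutathione donor and nickel acceptor beads; buffer 50 mM Tris pH 8.0, 300 mM NaCl, 1 mM TCEP; 1 h at 37 C in the dark.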
# TRPV1 potentiator – enhances activation of the human vanilloid receptor TRPV1; Q8NER1; TRPV1-expressing cells, Fluo-8 calcium influx, capsaicin EC20 potentiation; host cell line not named in the record; control for the full effect not named in the record; potentiation, % at 8.33 µM; 320,000 tested, 0.02% active; AID 540277; active means potentiation above 80%; inconclusive means 30% to 80%; inactive means below 30%; note: 0% is about no effect
#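 Fluo-8 calcium influx in TRPV1-expressing cells, kinetic read (ex 480/em 520 nm). Compound added and read 3 min for agonist activity, followed by capsaicin at EC20 final and 2 min further read for enhancement.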
# D2 PAM – potentiates the human D2 dopamine receptor allosterically; DiscoveRx D2 beta-arrestin cells, luminescence, 90 min; 100% = 57 uM dopamine signal; 360,000 tested, 0.23% active; P14416; potentiation, % (concentration not given with the values); active = potentiation of 50% or more; inconclusive = 30% to 50%; inactive = 30% or less;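 note: compound concentration not given in the record; tested on top of an EC20 dose of dopamine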
# Target sequence (P14416 whole entry, looked up): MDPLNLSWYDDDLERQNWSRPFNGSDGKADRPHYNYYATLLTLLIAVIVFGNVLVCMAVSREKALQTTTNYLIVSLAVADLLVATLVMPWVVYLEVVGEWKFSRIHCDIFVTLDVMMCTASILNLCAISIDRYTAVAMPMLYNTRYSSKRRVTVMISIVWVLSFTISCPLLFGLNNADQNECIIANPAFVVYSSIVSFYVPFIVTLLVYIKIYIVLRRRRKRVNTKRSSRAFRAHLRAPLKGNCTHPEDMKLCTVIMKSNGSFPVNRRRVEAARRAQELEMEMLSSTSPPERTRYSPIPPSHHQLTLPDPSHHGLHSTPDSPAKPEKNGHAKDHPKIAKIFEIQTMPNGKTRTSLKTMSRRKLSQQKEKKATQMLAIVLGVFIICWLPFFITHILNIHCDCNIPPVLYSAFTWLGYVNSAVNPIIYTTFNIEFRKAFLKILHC
#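 PathHunter D2 cells, attached overnight at 37 deg C, received compound in DMSO plus dopamine at EC20 (50 nM final) for 90 min at 37 deg C. Beta-arrestin recruitment was read as luminescence after 1 h with detection reagent at ambient temperature.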
# D2 agonist – activates the human D2 dopamine receptor. P14416. DiscoveRx PathHunter D2 beta-arrestin, luminescence, 90 min; 100% = 57 uM dopamine signal. activation, % (test concentration not listed). 360,000 tested, 0.084% active. AID 624465; in the data active = activation above about 40%; inconclusive = about 15% to 40%; inactive = below about 15%; note: compound concentration not given in the record; the text of the record calls up to 30% inactive
#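 Agonist mode: compounds alone added to overnight-plated D2 PathHunter cells for 90 min at 37 C, with 57 uM final dopamine (EC100) defining full response. Beta-arrestin recruitment detected by chemiluminescent reagent, read after 1 h at ambient temperature.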
# Numbers without * were called inactive; ? = inconclusive; · = not tested or not shown; & = joins results of further samples; [ ] = another dose, or the depositor's remark.
# Each structure is followed by: Sfp PPTase inh, CtBP-E1A inh, PINK1 modulator, Six1-Eya2 inh, TRPV1 potentiator, D2 PAM, D2 agonist
O=C1NC(Cc2ccc(O)cc2)c2nc3ccc(F)cc3c(=O)n2-c2ncccc21 (stereo unspecified)
 : ·, -5.9, 1.2%, -5.3, ·, ·, -1.5
O=C(NCc1ccccc1)OC1CC2CC1[C@H]1CCCCN1C2=O (stereo partly specified)
 : ·, -17.1, 0.3%, 8.1, ·, ·, ·
COc1ccc(-n2c(=S)[nH]c3cc(C(=O)O)ccc3c2=O)cc1
 : -36.6%, 5.0, -0.9%, -4.5, -6.9, -2.6, 4.8
CC(C)=C[C@H]1C[C@H](C)[C@H]2CC[C@H](C)c3c(O[C@@H]4OC[C@@H](O)[C@H](O)C4O)c(O)c(C)c1c32 (stereo partly specified)
 : ·, -7.8, -1.1%, -20.1, ·, 3.7, 2.7
O=C(COC(=O)Cc1cn2ccsc2n1)Nc1nc2ccccc2s1
 : -7.4%, -6.2, 0.8%, -4.8, -20.5, -11.5, -3.0
Cc1cn(-c2cc(C(=O)Nc3ccc(C)c(NC(=O)C(=O)c4c[nH]c5ccccc45)c3)cc(C(F)(F)F)c2)cn1
 : 22.6%, -5.3&-0.5, 11.8%&7.8%, 2.9&-5.5, -18.9, -1.8&-8.4, -2.9&0.4
CCCc1cc(C(=O)NCCc2ccc(OC)c(OC)c2)no1
 : 9.2%, 2.7, 0.2%, 0.7, ·, 0.1, 0.1
COc1ccc(C[C@H]2c3cc(O)c(OC)cc3CC[N+]2(C)[O-])cc1O (stereo partly specified)
 : -23.2%, -5.9, 0.0%, -2.9, -8.7, -31.7, -10.7
C[C@H]1CN=C(N(C)C)N1CCc1ccccc1
 : ·, 5.6, -0.7%, 0.4, 23.3, -13.9, -1.9
COc1ccc(NC(=O)[C@@H]2CCCN2S(=O)(=O)c2cccc3cccnc23)cc1
 : ·, 1.0, 2.9%, 6.5, 10.3, 2.1, 2.3
CCCNC(=O)C1(C)CCN(Cc2ccc(OC)c3ccccc23)C1 (stereo unspecified)
 : ·, -13.8, 1.8%, 12.0, ·, -17.7, -3.7
CC(OC(=O)Cc1n[nH]c(=O)c2ccccc12)C(=O)Nc1ccc(S(N)(=O)=O)cc1 (stereo unspecified)
 : ·, 4.6, 4.8%, -0.5, -1.6, -2.7, 1.5
CCOC(=O)C1=NNC2(c3ccc(C)cc3)C(=O)N(c3ccc(Cl)cc3)C(=O)C12 (stereo unspecified)
 : 11.2%, -4.0, 3.1%, -11.6, 6.0, -20.6, -1.7
O=C(Cc1c(F)cccc1Cl)Nc1ccccc1C(=O)N1CCCCC1
 : ·, 3.7, -1.0%, 3.5, 19.0, -6.8, -7.9
C=CCn1c(COc2ccccc2F)nnc1SCC(=O)N1CC(=O)Nc2ccccc21
 : 6.9%, 6.7, -1.2%, -0.9, -3.4, -3.6, -3.2
Cc1ccc(S(=O)(=O)C(C#N)c2nc3ccccc3nc2N2CCCC2)cc1 (stereo unspecified)
 : ?, 0.4, 6.2%, -23.6, 25.3, 17.6, 4.3
COc1cc(/C=N/NC(=O)c2ccncc2)ccc1OC(=O)c1cc(OC)c(OC)c(OC)c1
 : 14.0%, 3.3, 1.3%, 3.9, 13.5, -1.9, 0.3
O=C(Nc1ccnn1C1CCN(C/C=C/c2ccc(F)cc2)CC1)C1CCCC1
 : -2.6%, -25.7, 0.7%, -8.0, 2.2, -11.0, -6.0
O=C(NCc1ccccn1)C(=O)NCC1OCCN1S(=O)(=O)c1ccc(Cl)cc1 (stereo unspecified)
 : 4.3%, 7.2, 1.0%, 10.6, 8.5, -3.9, -7.9
COc1ccc(C(C)=O)cc1CSc1nc(C)cc(C)n1
 : -15.8%, -0.2, 0.5%, 3.7, -7.6, 0.8, 1.9
COc1ccc(-c2nn(-c3ccccc3)cc2C(=O)N2CCOCC2)cc1
 : 15.6%, 4.2, 1.1%[38.3 µM], 1.8, -26.7, -9.3, -1.8
CCOC(=O)Cc1csc(NC(=O)c2ccc3ncsc3c2)n1
 : 7.7%, -18.2, 0.7%, -8.7, -9.8, -6.7, -0.9
COc1cccc(CNCCO)c1OCc1ccccc1
 : -14.8%, 0.8, 0.4%, -23.5, -5.4, 8.3, -3.6
CCCCc1cc(=O)oc2c(CN3CCN(C)CC3)c(O)ccc12
 : 6.6%, -17.7, -0.2%, -2.8, -3.1, -21.6, -2.9
CN1CCC23c4ccccc4NC1C21CCN(C)C3Nc2ccccc21
 : ·, 8.8, 0.9%, 1.3, ·, -7.8, -3.0
CN(CCCN1CCCCC1)C(=O)c1cc(COc2ccc(F)cc2F)on1
 : 13.6%, 9.4, -2.2%, 6.6, 3.9, -36.6, -4.7
O=C(Oc1cccc(NC(=O)c2ccco2)c1)c1cccc(S(=O)(=O)N2CCCCC2)c1
 : 6.1%, -7.3, -1.5%, -7.2, 17.2, 13.1, -0.7
CSc1ncccc1C(=O)OCC(=O)Nc1cc(C(F)(F)F)ccc1N1CCOCC1
 : 3.3%, 7.9, ·, 9.5, 12.2, 16.9, 4.0
CC(C)OC(=O)c1cc2c(ccn2C)n1CC(=O)N(Cc1ccccc1)c1ccc(F)cc1
 : -23.5%, -13.1, 9.1%, 0.0, 9.4, -27.1, -3.7
O=[N+]([O-])c1ccc(/C=N/Nc2ncccc2[N+](=O)[O-])s1
 : ·, 16.8, 2.5%, 18.3, ·, 5.8, -1.9

# Entries from the list above containing a CF3 group (two):
# Each structure is followed by: Sfp PPTase inh, CtBP-E1A inh, PINK1 modulator, Six1-Eya2 inh, TRPV1 potentiator, D2 PAM, D2 agonist
Cc1cn(-c2cc(C(=O)Nc3ccc(C)c(NC(=O)C(=O)c4c[nH]c5ccccc45)c3)cc(C(F)(F)F)c2)cn1
 : 22.6%, -5.3&-0.5, 11.8%&7.8%, 2.9&-5.5, -18.9, -1.8&-8.4, -2.9&0.4
CSc1ncccc1C(=O)OCC(=O)Nc1cc(C(F)(F)F)ccc1N1CCOCC1
 : 3.3%, 7.9, ·, 9.5, 12.2, 16.9, 4.0

# Next section
# Each structure is followed by: Sfp PPTase inh, CtBP-E1A inh, PINK1 modulator, Six1-Eya2 inh, TRPV1 potentiator, D2 PAM, D2 agonist
Cc1ccccc1NC(=O)CN1CCC(NC(=O)Nc2ccccc2)CC1
 : 22.6%, -8.6, -2.8%, -0.3, -17.7, -26.0, 0.5
N#Cc1ccsc1NC(=O)CN(Cc1ccccc1)Cc1ccccc1
 : -1.4%, 9.3, 6.2%, 9.4, -8.3, -8.6, -0.3
Cc1ccc(N2CCN(S(=O)(=O)N(C)C)CC2)c(C)c1
 : 2.8%, 0.4, 0.4%, 6.6, -16.5, -6.3, -2.0
COc1cccc(-c2noc(C3CCCN(C(=O)c4ccccc4OC)C3)n2)c1 (stereo unspecified)
 : 8.8%, ·, 3.4%, -2.3, 15.1, ?, 8.8
CC1CCN(C(=O)c2[nH]cnc2C(=O)Nc2ccccc2)CC1
 : ·, ·, 2.4%, -4.4, ·, -19.8, -0.2
O=C1COc2ccc(C(=O)COC(=O)C3CCN(S(=O)(=O)c4cccs4)CC3)cc2N1
 : 1.5%, -1.9, 0.5%, 8.8, -5.1, -6.8, 0.9
Fc1cccc(Cl)c1C1Nc2cccc3cccc(c23)N1
 : -14.7%, ·, 2.0%, -3.8, 1.0, ?, ?
CCN(CC)C(=O)CSc1nnc(-c2ccccn2)n1-c1ccc(C)c(C)c1
 : 7.7%, -14.2, 0.3%, -16.9, -13.5, -5.6, -0.9
O=C(Nc1cccnc1)c1ccc(COc2ccccc2Br)o1
 : 0.3%, -12.5, 17.3%[38.3 µM], -6.7, 15.8, -1.8, -1.3
Cc1ccc(C(=O)N/C(=C\c2cn(C)c3ccccc23)C(=O)N2CCN(C)CC2)cc1
 : 0.8%, 1.1, -0.7%, -1.3, -11.4, -33.4, -6.9
Nc1nc(COC(=O)C2CC(=O)N(CCc3ccccc3)C2)nc(Nc2ccccc2)n1 (stereo unspecified)
 : ·, 3.2, -0.1%, -1.4, 3.9, 0.6, 7.1
Clc1ccc(OCc2nn3c(-c4ccncc4)nnc3s2)cc1
 : 12.9%, 1.7, 9.6%, 6.6, 9.8, -1.7, -7.0
COc1ccc(NC(=O)CSc2ccc(-c3ccco3)nn2)cc1
 : 31.6µM*, 3.1, 6.4%, -5.3, 1.8, -12.8, -2.1
O=c1[nH]c(Cc2ccccc2)nc2ccccc12
 : 11.2%, -6.8, 2.8%, 8.2, 9.2, -2.0, -4.8
Cc1cc(C)cc(NC(=S)N2CCC(NC(=O)c3ccccc3C)CC2)c1
 : 10.0%, -1.0, 2.7%, 0.1, 7.8, -5.9, -1.5
CC1=C(c2ccc(Cl)cc2)[N+](=O)C(C)(C)N1[O-]
 : -4.4%, 4.6, 1.5%, 6.2, 3.5, 4.5, ?
COc1ccc(NC(=O)CN(C)C(=O)CN2C(=O)c3ccc([N+](=O)[O-])cc3C2=O)cc1
 : 4.1%, 0.0, -2.2%, -3.2, 13.8, 65.7*, 10.8
NNC(=O)CNC(=O)c1ccccc1F
 : -9.7%, 6.8, 1.3%, 2.6, 19.8, -7.7, -3.9
c1ccc(-c2cc(N3CCCCC3)c3ccccc3n2)cc1
 : -9.3%, 11.2, 17.0%, 22.6, -12.1, -7.8, -3.9
COC(=O)c1ccc(CSc2nnc(-c3c[nH]c4ccccc34)n2C)o1
 : -0.9%, -8.5, -0.2%, -2.4, -3.9, 5.7, 0.3
Cc1ccc(NC(=O)CSc2nc(=O)n(Cc3ccncc3)c3c2CCC3)c(C)c1
 : ·, 1.5, -2.1%, 7.2, 2.4, -1.0, -4.7
CN(CC(=O)Nc1nc2ccccc2s1)S(=O)(=O)c1ccccc1
 : 17.6%, 9.1, -2.4%, 7.4, -11.0, 13.2, -1.2
O=c1c2[nH]c3ccccc3c2ncn1Cc1ccco1
 : 5.8%, -0.6, -0.2%, -3.8, 0.8, -1.1, -0.3
COc1ccccc1OCC(=O)Nc1cccc(-c2nc3ccccc3o2)c1
 : 0.5%, 8.3, ·, -1.9, 3.7, -3.0, -3.1

# Already shown: two of the compounds above.
# Each structure is followed by: Sfp PPTase inh, CtBP-E1A inh, PINK1 modulator, Six1-Eya2 inh, TRPV1 potentiator, D2 PAM, D2 agonist
O=c1c2[nH]c3ccccc3c2ncn1Cc1ccco1
 : 5.8%, -0.6, -0.2%, -3.8, 0.8, -1.1, -0.3
COc1ccccc1OCC(=O)Nc1cccc(-c2nc3ccccc3o2)c1
 : 0.5%, 8.3, ·, -1.9, 3.7, -3.0, -3.1

# Bioassay records as filed in PubChem.
